rRNA inh HTS: inhibits bacterial ribosomal RNA function over humanized ribosomes; hit rate 1.6% among 350,000; AID 720706; E. coli WT GFP vs humanized-ribosome RFP mutants, fluorescence, 24 h; active compounds read low; DMSO median 0, no signal -100; GFP signal change (wild-type ribosome), % (test concentration not listed);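 active = significant combined selectivity score with lowered wild-type GFP, culture density cut under 30%, mutant RFP and density less affected; inactive = any of these conditions unmet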; note: one replicate is shown; some compounds called inactive have numbers as strong as hits
FGF22 binding: FGF22 (human) thermal shift binding | Q9HCT0 | recombinant FGF22 thermal shift, SYPRO orange fluorescence; percent of sucrose octasulfate shift, DMSO zero | hit rate 1.5% among 340,000 | AID 651658 | calls only at 9.99 µM;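 active = melting point raised past a set limit in the mean and every replicate; three in four hits are not shown here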
Target sequence (Q9HCT0 whole entry, looked up): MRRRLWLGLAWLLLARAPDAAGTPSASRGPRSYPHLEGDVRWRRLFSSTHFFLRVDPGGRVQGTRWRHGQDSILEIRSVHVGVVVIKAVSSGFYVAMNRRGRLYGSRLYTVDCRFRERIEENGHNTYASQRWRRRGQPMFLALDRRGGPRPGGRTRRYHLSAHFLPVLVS
UCH37 inh: blocks the human deubiquitinase UCH37 | Q9Y5K5 | purified proteasome/UCH37, Ub-AMC cleavage fluorescence | inhibition, % (test concentration not listed) | hit rate 0.33% among 330,000 | AID 588478;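 active = mean of two replicates above 20%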;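 note: 0% = compound-free wells with enzyme and 100% = wells lacking proteasome; stock transfer was 100 nL into about 20 µL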
Target sequence (Q9Y5K5 whole entry, looked up): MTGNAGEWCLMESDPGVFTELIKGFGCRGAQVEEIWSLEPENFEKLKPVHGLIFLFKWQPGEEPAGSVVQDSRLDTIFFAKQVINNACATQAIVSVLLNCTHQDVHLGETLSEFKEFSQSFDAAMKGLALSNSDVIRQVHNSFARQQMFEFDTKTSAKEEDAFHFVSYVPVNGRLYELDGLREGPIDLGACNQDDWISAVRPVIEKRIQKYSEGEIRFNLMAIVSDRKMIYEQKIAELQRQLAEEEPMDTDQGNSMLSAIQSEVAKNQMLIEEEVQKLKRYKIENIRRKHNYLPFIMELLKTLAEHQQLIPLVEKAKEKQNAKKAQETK
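Reagent: Ub-AMC substrate; assay system: Proteasome-associated human UCH37 deubiquitinase; controls: no-proteasome and no-compound wells; read-out: % inhibition of Ub-AMC cleavage fluorescence; timing: 30 min preincubation with enzyme, 25 min cleavage at room temperature; signal: AMC fluorescence from Ub-AMC cleavage, excitation 355 nm, emission 460 nm; buffer or medium: Tris-HCl pH 7.4 plus ovalbumin, ATP-MgCl2, DTT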
T cruzi repl: blocks replication of Trypanosoma cruzi; AID 1885; inhibition, % (test concentration not listed); hit rate 1.4% among 300,000; T. cruzi beta-gal in NIH3T3, luminescence, 90 h;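 active = mean inhibition across valid replicates above about 55%, limit read from the data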;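 note: signal also drops with host cell toxicity which is not excluded here; 0% = plate median of DMSO wells and 100% = zero luminescence signal; higher percent means less beta-gal luminescence so fewer parasites; stock transfer was 50 nL into about 50 µL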
E coli growth: inhibitors of Escherichia coli growth; hit rate 0.21% among 330,000; OD600 absorbance (concentration not given with the values); OD600, 23 h; active compounds read low;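 active = OD600 absorbance below the run mean of sample wells minus 3.6 SD, in any replicate, cut at about 0.56 in these data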;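 note: stock transfer was 300 nL into about 60 µL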
Bfl-1 A1 inh: inhibitors of the anti-apoptotic protein A1, read as caspase activation. AID 2462. hit rate 0.066% among 330,000. caspase activation, % (no concentration beside the values). MEF A1-2A-BIM cells, Caspase-Glo 3/7 luminescence, 3 h; percent of clofoctol response, vehicle zero;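 active = over half of replicate activation scores above 10%, or exactly half above 10 with the replicate mean above 10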;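 note: wells of about 30 µL received 50 nL stock; many hits fall short of the cut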
MLL AF4-AF9 inh: inhibitors of human MLL-AF4/AF9 interaction; AlphaScreen, biotin-AF4 peptide binding to FLAG-AF9; inhibition, % at 10 µM; hit rate 0.47% among 350,000;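 active = every replicate reaching a set inhibition limit, whatever the replicate mean, cut at about 25% in these data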;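 note: 0% = plate neutral control median and 100% = total signal loss; the record names both 10 and 1 µM as test concentration; the first replicate is given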
Beta cell apopt: beta cell apoptosis inhibition | INS-1E cytokine-induced death, ATP luminescence, 48 h; percent of positive-control rescue, neutral wells zero | protection from apoptosis, % (no concentration beside the values) | hit rate 0.8% among 300,000 | AID 435005;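 active = all replicates at 75% or more, or half of them and the mean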;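 note: 0% = cytokine-treated negative control wells and 100% = positive control rescue; higher means more ATP so stronger rescue from cytokine killing; wells of about 40 µL received 100 nL stock; the first replicate is given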
rRNA inh HTS OD600: recorded beside rRNA inh HTS, whose call it bears; OD600 change, %; measured here: OD600 growth;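 optical density of the mix in the first replicate; 0 = DMSO median and -100 = no signal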
rRNA inh HTS RFP: further read-out of rRNA inh HTS, marked with its call; RFP signal change, %; measured here: RFP humanized mutant strains;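 first replicate; 0 = DMSO median and -100 = no signal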
Numbers without * were called inactive; i = inactive; . = no result given. Some of the compounds tested, so the mix of outcomes need not match the whole.

smiles	rRNA inh HTS	rRNA inh HTS OD600	Bfl-1 A1 inh	MLL AF4-AF9 inh	UCH37 inh	T cruzi repl	rRNA inh HTS RFP	FGF22 binding	E coli growth	Beta cell apopt
COc1cc(OC)c(S(=O)(=O)Nc2ccccc2NC(=O)CN2CCOCC2)cc1NC(C)=O	5.0	6.9	0.5	-2.9	1.2	-9.5	-0.8	i	0.69	0.5
Cc1cccc(N2CC(C(=O)Nc3ccc(S(=O)(=O)N4CCOCC4)cc3)CC2=O)c1 (stereo not given)	3.1	2.7	1.2	3.1	-1.9	1.6	0.9	i	0.694	-1.3
O=C(CNC(=O)c1ccc(F)cc1)N/N=C/c1cc(Br)ccc1OCc1ccccc1	-19.7	-19.6	1.0	0.3	.	7.7	-2.8	i	.	2.3
CCCCC(=O)N/N=C/c1ccc(-c2ccc([N+](=O)[O-])cc2)o1	-5.7	2.1	-0.4	2.0	.	23.0	-7.4	.	.	-1.4
O=C(NC1CC2CCCC(C1)N2C(=O)Nc1ccccc1F)C1CC1 (stereo not given)	20.5	16.4	1.1	-4.5	0.7	-9.3	5.0	i	0.668	-0.3
Cc1cccc(OCC(O)CN2CCN(S(=O)(=O)c3ccc(C)cc3C)CC2)c1 (stereo not given)	-5.6	-9.8	0.1	35.7*	2.7	-3.2	3.4	i	0.654	5.9
COc1ccc(-c2nn(-c3ccccc3)cc2/C=C/C(=O)N2CCN(c3ccccn3)CC2)cc1	-7.0	0.7	0.3	3.3	0.8	55.5*	2.8	i	0.755	0.8
CCC1C(C#N)=C(SCC(N)=O)NC2=C1C(=O)CC(C)(C)C2 (stereo not given)	-24.2	-24.9	-0.5	-2.9	-47.8	5.6	-5.4	i	0.651	-16.3
Fc1ccc(-c2ccc(NCCN3CCOCC3)nn2)cc1	0.4	4.8	0.2	1.9	-2.8	14.8	-1.0	i	0.693	-4.4
COc1ccc(C(=O)Nc2ccc(-n3nncc3C(C)(C)C)cc2)cc1	-27.2	-28.1	0.3	1.5	2.3	6.5	-4.5	i	0.694	1.3
CS(=O)(=O)Nc1ccc(C2=NN(C(=O)c3ccco3)C(c3ccccc3F)C2)cc1 (stereo not given)	-7.0	-26.5	-0.1	5.5	-4.1	20.7	3.5	i	0.688	4.6
Cc1cccc(NC(=O)NCC2CCN(c3ccc(S(=O)(=O)N4CCOCC4)cc3)CC2)c1	-1.9	-0.4	0.3	3.4	5.9	-12.2	4.7	i	0.699	23.7
O=S(=O)(NCC1COc2ccccc2O1)c1ccc2ccccc2c1 (stereo not given)	.	.	0.9	.	-0.8	-13.5	.	.	0.666	-2.9
CC1CC(C)CN(S(=O)(=O)c2cc(C(=O)O)c(Cl)s2)C1 (stereo not given)	.	.	-1.0	.	0.3	-13.8	.	.	0.684	0.8
COc1ccc(OC)c(Cc2nnc(CCC(=O)N3CCN(C4CCCC4)CC3)o2)c1	7.9	1.6	-0.5	0.1	.	14.5	-0.3	i	.	-1.8
O=C(COc1ccc(Cl)cc1)Nc1cc(NC(=O)COc2ccc(Cl)cc2)cc(C(=O)O)c1	-37.0	-41.8	-0.6	-0.4	-2.0	11.2	-4.9	i	0.666	-3.8
COc1cc(/C=C2\SC(=Nc3ccc(O)cc3)NC2=O)cc(OC)c1O	-3.6	8.1	0.4	-0.5	12.7	-16.8	-2.9	i	0.744	6.2
COC(=O)c1c(NC(=O)COC(=O)[C@@H](NS(=O)(=O)c2cccc(Cl)c2)C(C)C)sc2c1CCC2	1.6	3.4	-1.3	3.4	-12.0	21.3	20.3	i	0.71	3.1
CCOC(=O)C1(Cc2cccc(Cl)c2)CCCN(C(=O)CCNC(C)=O)C1 (stereo not given)	0.0	6.0	-2.6	1.5	5.1	-8.1	-2.3	i	0.649	-2.7
CCCn1c(=O)[nH]c(=O)c2c1nc(-c1ccc(OC(F)F)cc1)n2CCN1CCOCC1	.	.	-0.9	.	1.9	11.8	.	.	0.666	0.7
CN(C)C(=O)c1cc(C(=O)c2ccccc2Br)c[nH]1	-5.7	1.2	-0.7	-2.5	2.6	-14.3	-3.2	i	0.648	-7.8
CN(C)S(=O)(=O)c1cccc(C(=O)NCCNC(=O)c2cccc(S(=O)(=O)N(C)C)c2)c1	-7.7	2.8	0.3	-1.5	3.4	11.2	-0.4	i	0.666	-1.8
COC(=O)Oc1ccc(/C=N/NS(=O)(=O)c2ccccc2)cc1OC	6.2	15.6	-0.8	0.7	.	-9.0	4.8	i	.	6.0
CCCSc1nnc(NC(=O)CCc2ccccc2)s1	0.7	8.2	0.0	-0.3	0.9	0.1	-2.3	i	0.715	-5.3
O=C(NCc1ccccn1)c1cccc(NS(=O)(=O)c2cccc(Cl)c2)c1	.	.	0.0	.	0.3	-8.3	.	.	0.711	-0.2
O=C(CSc1nc2ccccc2s1)Nn1cnnc1	.	.	0.2	.	7.1	-24.6	.	.	0.75	-4.2
Cc1[nH]n(-c2ccccc2)c(=O)c1C(c1cccc([N+](=O)[O-])c1O)c1c(C)[nH]n(-c2ccccc2)c1=O	-10.0	1.0	0.7	-5.0	2.9	9.2	-0.6	i	0.649	5.6
N/C(=N\OC(=O)CN1C(=O)c2ccccc2C1=O)c1ccc(Cl)cc1	7.0	10.5	0.1	-2.9	7.0	-7.6	2.1	i	0.725	-9.2
Cc1cc(C)cc(Oc2nc3c(C)cccn3c(=O)c2/C=C(\C#N)C(=O)NC2CCS(=O)(=O)C2)c1 (stereo not given)	2.5	5.9	-0.5	-1.8	-23.6	.	2.2	i	0.669	-7.2
CCOc1ccccc1C(=O)Nc1nncs1	6.7	0.2	-0.2	5.1	1.9	-6.3	-2.5	i	0.697	-3.8
CCOC(=O)C1CCN(c2c(C(=O)c3ccccc3)cnc3ccc(CC)cc23)CC1	7.0	12.3	-0.4	-0.3	2.9	-0.3	12.9	i	0.751	6.5
CN1CCN(C(=O)c2cc(C(C)(C)C)cc(C(C)(C)C)c2)CC1	-20.2	-17.1	1.0	2.1	0.2	-4.4	-1.7	i	0.701	-2.5
COc1ccc(N2CCN(C(=O)c3cc(=O)c4cc(C)ccc4o3)CC2)cc1	7.3	11.5	0.7	-0.6	0.4	-1.7	5.9	i	0.669	-0.9
CC1=C(C(N)=O)C(c2ccccn2)n2nc(SCc3ccccc3)nc2N1 (stereo not given)	.	.	-0.5	.	4.7	-12.7	.	.	0.707	-9.8
Cc1ccc(C(C)C)c(OCc2nnc(SCC(=O)Nc3ncc(C)s3)n2C)c1	.	.	1.5	.	0.2	12.2	.	.	0.738	16.3
CC1Cc2ccccc2N1C(=O)CSc1nnc(Cn2nnc3ccccc32)n1C (stereo not given)	-0.8	-6.5	0.2	-11.4	-1.6	-0.9	-1.3	i	0.655	-1.2
CC(=O)NC(CCS(C)(=O)=O)C(=O)Nc1ccc(F)cc1Cl (stereo not given)	.	.	-0.5	.	0.3	-1.8	.	.	0.712	-1.0
O=c1c2c3c(sc2nc2n1CCCC2)CCCC3	.	.	-3.3	.	2.6	-8.3	.	.	0.763	6.8
CCc1ccc(Oc2coc3cc(OC(=O)c4cc5ccccc5oc4=O)ccc3c2=O)cc1	.	.	1.4	.	-5.2	-8.4	.	.	0.639	0.2
CCC(C)Nc1c([N+](=O)[O-])cc(C)cc1[N+](=O)[O-] (stereo not given)	.	.	0.7	.	2.8	-14.4	.	.	0.659	-5.4
COc1cc(/C=C2/C(=N)N3OC(C)=CC3=NC2=O)ccc1OCCOc1ccc(C)cc1	.	.	-1.5	.	-340.3	-1.5	.	.	0.731	0.0
c1ccc(C2=Nc3cccc4cccc(c34)N2)cc1	.	.	-0.7	2.7	9.6	7.5	.	i	0.633	3.8
C=CCc1ccc(O)c(-c2ccc(O)c(CC=C)c2)c1	.	.	0.7	7.4	5.8	15.4	.	.	0.684	-7.5
COc1ccc(C(CNC(=O)c2ccc(S(=O)(=O)Nc3ccc(F)cc3)cc2)N(C)C)cc1 (stereo not given)	2.6	-16.7	-0.3	3.6	0.0	2.2	10.1	i	0.68	11.6
Cc1ccc2nc(NC(=O)c3ccc(Cl)s3)sc2c1	0.0	11.0	-4.4	2.1	-80.6	8.8	-0.1	i	0.791	.
COc1cccc(CN(C)C(=O)Cc2c[nH]c3ccccc23)c1OC	-4.6	-15.6	-1.8	0.1	3.5	-9.0	-0.6	i	0.661	-6.8
O=C(O)CCCCCNCc1ccncc1	5.5	5.0	0.2	-1.4	-1.1	-17.4	-7.9	i	0.751	0.4
COc1ccc(S(=O)(=O)NCC(c2ccc(C)cc2)N2CCN(C)CC2)cc1OC (stereo not given)	6.7	5.2	-0.3	-0.3	0.8	-11.7	-3.2	i	0.709	-7.0
CC(=O)N1CCc2cc(S(=O)(=O)CCC(=O)NCc3ccco3)ccc21	5.5	10.9	0.3	-2.4	0.1	-4.7	-0.6	i	0.679	1.4
COc1ccc(CN(C)C(=O)c2ccc(NC(=O)CC3SC(N4CCCC4)=NC3=O)cc2)c(OC)c1 (stereo not given)	2.6	-5.4	1.2	-11.8	-0.2	-9.1	1.6	i	0.695	-2.0
CC(=O)NC(CC(=O)Nc1ccc(S(=O)(=O)N2CCCCC2)cc1)c1ccccc1 (stereo not given)	1.8	3.3	0.1	.	5.3	-10.7	-1.8	.	0.726	-0.9
Cc1cc(SCC(=O)NCCN2C(=O)CSC2=O)nc2c(C)cccc12	.	.	0.7	.	3.3	-9.2	.	.	0.671	-2.4

High-throughput results from PubChem BioAssay.
